Bioassay records: PubChem, The Scripps Research Institute Molecular Screening Center
OX1R antagonist: human HCRTR1 antagonism | O43613 | CHO/OX1R cells, Fluo-8 calcium fluorescence, orexin A | actives 0.43% (n = 330,000) | inhibition, % at 5 µM;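 active = inhibition above its plate's threshold, mean inhibition of all tested compounds on the plate plus 3 SD, cut at about 37% in these data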;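 note: 0% = orexin A challenge wells and 100% = SB-334867-A antagonist wells; not every result past the cut was called active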
Target sequence (O43613 whole entry, looked up): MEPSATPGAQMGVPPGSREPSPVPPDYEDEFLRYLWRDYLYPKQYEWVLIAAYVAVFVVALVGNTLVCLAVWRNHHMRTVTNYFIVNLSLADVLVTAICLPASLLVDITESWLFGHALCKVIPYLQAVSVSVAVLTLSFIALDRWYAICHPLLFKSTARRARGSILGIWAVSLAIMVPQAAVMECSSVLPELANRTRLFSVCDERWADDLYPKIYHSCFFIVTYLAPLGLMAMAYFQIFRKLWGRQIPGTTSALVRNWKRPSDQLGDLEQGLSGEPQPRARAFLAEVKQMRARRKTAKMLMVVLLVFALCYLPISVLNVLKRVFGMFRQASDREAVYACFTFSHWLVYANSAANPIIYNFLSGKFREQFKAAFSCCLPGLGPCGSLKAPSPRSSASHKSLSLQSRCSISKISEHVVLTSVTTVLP
An asterisk follows results filed as active. Only part of the results is shown, and most or all hits are left out here.

SMILES	OX1R antagonist
COc1ccc(NC(=O)NC(C(F)(F)F)C(F)(F)F)cc1	0
COc1ccc(-c2noc3c2-c2nc(-c4ccccc4F)sc2CC3)cc1	-12
CCOC(=O)CN(C(=O)CSc1nnc2c(n1)[nH]c1ccc(OC)cc12)c1ccc(F)cc1	-8
O=C(COc1ccccc1)N1CCN(c2ncccn2)CC1	-18
COc1cc(OC)cc(C(=O)OCn2nnc3ccccc3c2=O)c1	-4
O=C(O)CCN1C(=O)C2C3CC(C2C1=O)C1C(c2ccccc2)c2sc(=O)[nH]c2SC31 (configuration not stated)	-12
O=C(NN=C1CCCC1)c1ccc([N+](=O)[O-])cc1	-4
CC1(C)CC(=O)C2=C(C1)NC(=O)CC2c1cc2c(cc1Br)OCO2 (configuration not stated)	-18
Cc1cccc(C2c3[nH]c4ccccc4c3CCN2C(=O)c2cc(-c3cccn3C)n[nH]2)n1 (configuration not stated)	-16
Cc1cc(C(=O)Cn2nc(C(=O)O)c3ccccc3c2=O)c(C)n1-c1ccc(F)cc1	-4
C=CCOc1ccc2c(c1)c(=O)cc(C(=O)O)n2CC	-3
N#C/C(=C(/O)Cc1ccccc1)P(=O)(c1ccccc1)c1ccccc1	-23
Cn1c(COc2ccccc2)nnc1SCC(=O)c1cccc([N+](=O)[O-])c1	-4
Cc1ccc(S(=O)(=O)N[C@@H](Cc2ccccc2)C(=O)N2CCC(C(=O)N[C@H](C(=O)O)C(C)O)CC2)cc1 (some centres not stated)	-17
COc1ccccc1CNC(=O)C1CC2Cn3c(nc4cc(Cl)c(Cl)cc43)C2N1C (configuration not stated)	-17
CN(C)S(=O)(=O)c1ccc(NC(=O)CN2CCC(Cc3ccccc3)CC2)cc1	-20
Cc1ccc(Cl)cc1N1CCN(C(c2ccc(C#N)cc2)c2nnnn2C2CCCC2)CC1 (configuration not stated)	-36
CC12CCC(C(=O)N(c3ccc(Cl)cc3)C1=O)C2(C)C (configuration not stated)	-6
COc1ccc(NC(=O)C(=O)N/N=C(\C)CC(=O)Nc2cc(C)ccn2)c(OC)c1	-20
O=C(Nc1nc(-c2ccccc2)cs1)c1ccc(S(=O)(=O)N2CCc3ccccc32)cc1	-8
Cc1ccc[n+](CC(=O)N2CCCc3ccccc32)c1	-4
CCOC(=O)C1=C(CSc2nc3c(cc2C#N)CN(C)CC3)OC(N)=C(C#N)C1c1ccccc1 (configuration not stated)	-3
CC1=NN(c2ccccc2)C(=O)C1c1ccccc1 (configuration not stated)	-1
O=C(CCn1c(=O)oc2ccccc21)N1CCc2ccccc21	-3
C=CCn1c(-c2ccc(OC)cc2)csc1=Nc1c(C)n(C)n(-c2ccccc2)c1=O	-19
CCCC(=O)Nc1c2c(nc3ccccc13)N(c1ccccc1)CC2	-34
Cc1sc(NC(=O)c2cc3ccccc3oc2=O)c(C(=O)OC(C)C)c1-c1ccccc1	-24
CCOC(=O)CSc1n[nH]c(NC(=O)c2cccc(C)c2)n1	-9
COc1ccc(-n2c(=O)c3ccccc3n(CC(=O)NC3CCCCC3)c2=O)cc1	-27
Cc1[nH]cnc1CN1CCc2c(c3ccccc3n2C)C1=O	-5
Cc1ccc(F)cc1NCC(=O)Nc1ccc(Cl)cc1F	3
Cc1ccc(C(=O)NC2CCS(=O)(=O)C2)cc1S(=O)(=O)N1CCCC1 (configuration not stated)	-8
O=C(CCc1nc(-c2ccccc2)no1)Nc1cc(C(F)(F)F)ccc1Cl	-10
CC1CN(CCCCSc2ccc(Cl)cc2)CC(C)O1 (configuration not stated)	-29
Cc1nc(-c2ccc(NC(=O)/C=C\C(=O)O)cc2)cs1	-4
O=C(N1CCOCC1)N1CCCC(c2nc(-c3cccs3)no2)C1 (configuration not stated)	-11
Cc1ccc(C(=O)NCc2ccncc2)cc1S(=O)(=O)Nc1cccc(C)c1C	-6
N#Cc1ccc(CSc2nnc(NC(=O)C3CCCO3)s2)cc1 (configuration not stated)	-35
CCOC(=O)C1CCCN(C(=O)c2ccc(Cl)c(S(=O)(=O)N3CCCCC3)c2)C1 (configuration not stated)	-28
Cc1sc2nc(CN3CCCCC3)nc(Nc3ccc4c(c3)OCCO4)c2c1C	-14
CC(=O)Nc1ccc(NC(=O)CSc2ccc(-c3ccc4c(c3)OCO4)nn2)cc1	2
O=C(NCc1cccnc1)c1ccc2c(c1)OCO2	-7
O=C(O)/C=C/c1ccc(S(=O)(=O)N2CCCCCC2)cc1	-20
Cc1cc(NC(=O)CSc2nnc(-c3cccnc3)n2C)no1	2
Cc1ccc2nc(C)c(C(=O)N/N=C/c3ccc(C(=O)O)cc3)cc2c1	-16
CCOc1ccccc1NC(=O)NCCc1c[nH]c2ccccc12	-13
CCN=C1SC(CC(=O)NC(C)c2ccccc2)C(=O)N1CC (configuration not stated)	-8
CCC1C(=O)c2ccccc2N(C)C1=O (configuration not stated)	4
O=C(O)c1ccccc1NC(=S)NC(NC(=O)c1ccccc1[N+](=O)[O-])C(Cl)(Cl)Cl (configuration not stated)	-8
Cc1c(N/C(=N/S(=O)(=O)c2cc([N+](=O)[O-])ccc2Cl)c2ccccc2)c(=O)n(-c2ccccc2)n1C	-2
O=C(CNS(=O)(=O)c1cccc2nsnc12)NC1CCCCC1	-14
O=C(Nc1ccc(Cl)cc1)c1cc(-c2cccs2)on1	0
CC1=CCC2C(=O)N(Cc3ccccc3)C(=O)C2C1 (configuration not stated)	-16
CCOC(=O)c1c(C)c(C#N)c2c3ccccc3ccn12	-9
C=C(C)COc1ccc2c(C)c(CC(=O)N3C[C@H]4C[C@@H](C3)c3cccc(=O)n3C4)c(=O)oc2c1C	-8
Cn1c(-c2ccccc2F)cc2onc(-c3ccccc3)c2c1=O	-36
C=CCN(CC=C)C(=O)Cc1ccc(F)cc1	-14
CCn1c(SCC(=O)OCc2ccccc2)nc2c1c(=O)n(C)c(=O)n2C	-14
CCOC(=O)c1nnn2c1nc(N1CCN(c3ccccc3)CC1)c1ccccc12	-43
CC(c1nnc(SCC(=O)NC(=O)NCc2ccco2)n1-c1ccc(Cl)cc1)N(C)C (configuration not stated)	-12

The list goes on.
SMILES	OX1R antagonist
O=C1C(=O)N(Cc2cccnc2)C(c2ccccn2)/C1=C(/O)c1ccc(Br)cc1 (configuration not stated)	-4
CN(C)S(=O)(=O)c1ccc(Cl)c(NC(=O)COC(=O)c2ccc3c(c2)NC(=O)CS3)c1	-6
O=C1c2ccccc2CN1CCNS(=O)(=O)c1ccc(Cl)cc1	2
CCOC(=O)C(C)Sc1nc2c(c(-c3cccs3)c1C#N)CCC2 (configuration not stated)	-29
Cc1nnc(SCC(=O)Nc2ncc3c(n2)CC(c2ccccc2)CC3=O)s1 (configuration not stated)	-14
CC(C)c1ccc(N2C(=O)CC(Sc3ncn[nH]3)C2=O)cc1 (configuration not stated)	-22
O=C1CCCC(O)=C1N=Nc1ccc(Cl)c(Cl)c1	-5
CCCc1oc(C(=O)O)cc1CN1CCOCC1	-8
CCOC(=O)N1CCC(N(CCCOC)C(=O)Nc2cccc(OC)c2)CC1	-15
O=C(CSc1nc(=O)n2ccccc2n1)Nc1ccc2c(c1)OCCO2	-22
CC1CCC(NC(=O)c2cc(S(=O)(=O)N3CCCCC3)c[nH]2)CC1 (configuration not stated)	-27
CCOc1cc(/C=C/C(=O)c2ccc(O)cc2)ccc1OCC(=O)N(C)C	-6
CCCCC(=O)Nc1ccc(C(=O)NNC(=O)CCc2ccccc2)cc1	7
c1ccc(-c2csc3ncnc(N4CCc5ccccc5C4)c23)cc1	-38
COc1cc(NC(=O)COC(=O)CCOc2ccc(C)cc2)cc(OC)c1	-20
O=C(Nc1ccccc1C(=O)NCc1ccco1)NC1CCCCC1	-39
COc1ccc(CN(CC(=O)NCc2ccc(F)cc2)C(=O)c2csnn2)cc1	-22
c1ccc(-c2nc(NCC3CCCO3)c3oc4ccccc4c3n2)cc1 (configuration not stated)	-34
CCOC(=O)CSc1ccc(S(=O)(=O)N(C)C2CCCCC2)cc1[N+](=O)[O-]	-27
CCOC(=O)CNC(c1ccccc1)c1cc(Br)ccc1NC(=O)OCC (configuration not stated)	-29

Taken from above.
`CCOC(=O)C(C)Sc1nc2c(c(-c3cccs3)c1C#N)CCC2` (configuration not stated) in OX1R antagonist shows -29
`c1ccc(-c2csc3ncnc(N4CCc5ccccc5C4)c23)cc1` in OX1R antagonist shows -38
`CCOC(=O)CSc1ccc(S(=O)(=O)N(C)C2CCCCC2)cc1[N+](=O)[O-]` in OX1R antagonist shows -27

(more compounds)
SMILES	OX1R antagonist
CCc1cc(C(=O)O)c(NC(=O)/C=C/c2ccc(OC)c(OC)c2)s1	-14
Cc1nn(-c2ccccc2)c(OC(=O)c2cccs2)c1S(=O)(=O)c1ccccc1	-6
Cc1ccc(CN(C)C(=O)c2ccccc2Oc2ccccc2)o1	-25
OCCC1CN(Cc2nc3c(s2)CCCC3)CCN1CCc1ccccc1 (configuration not stated)	-33
C/C(=N\NC(=O)CNC(=O)C(c1ccccc1)c1ccccc1)c1ccc(C(C)(C)C)cc1	-17
Cc1cnc(C(=O)OCC(=O)c2ccc(C3CCCCC3)cc2)cn1	-25
Cn1c(CNC(=O)CCNC(=O)c2cccc(Cl)c2)cc(=O)n(C)c1=O	5
CC(=O)C1=C(O)C(=O)N(CCc2c[nH]c3ccccc23)C1c1ccc(O)cc1 (configuration not stated)	14
COc1cccc(-c2c(NC(C)=O)n(C)c3ccccc3c2=O)c1	-17
Cc1cc(-c2csc(N)n2)c(C)n1Cc1ccco1	-12
Cc1nnc(SCC(=O)NC2CC2)n1-c1ccccc1	-1
C=CCn1c(N)c(C(=O)NCCC2=CCCCC2)sc1=S	-36
Cc1cc(C)cc(OCCNC(=O)c2cc(S(=O)(=O)N3CCOCC3)ccc2F)c1	-39
CCC(=O)NCCNc1ccc([N+](=O)[O-])cn1	-1
Cc1ccc2nc3c(c(N)c2c1)CCN3C	-8
Cc1cccc(C)c1NS(=O)(=O)c1c(C)[nH]c(=O)[nH]c1=O	-1
Cc1c(C)n(C)c2ccc(C(=O)NCCCN3CCN(c4ccccc4F)CC3)cc12	-28
Cc1n[nH]c(=O)nc1N/N=C/c1ccco1	-9
Clc1ccc(-c2nnsc2SCc2ccccc2)cc1	-24
CCS(=O)(=O)Nc1cccc(C2=NN(S(C)(=O)=O)C(c3ccccc3)C2)c1 (configuration not stated)	-13
Cc1ccc(CCNC(=O)C2CCN(S(=O)(=O)c3ccc4c(c3)CCC(=O)N4)CC2)cc1	-3
C/C(=N\OC(=O)Nc1ccccc1)c1cnn(-c2cc(C(F)(F)F)cc(C)n2)c1C	-11
O=C(CCc1nc(-c2ccccc2F)no1)Nc1cccnc1	3
CCc1ccc(C(=O)COC(=O)c2n[nH]c3ccccc23)cc1	-14
Cc1cc(Cl)c2oc(C(=O)N(C)CCCN3CCOCC3)c(C)c2c1	-31
Nc1nnc(SCC(=O)NC2CCCc3ccccc32)s1 (configuration not stated)	-15
CCOC(=O)CCc1c(C)nc(-n2[nH]c(C)c(CCO)c2=O)[nH]c1=O	-2
C=CCN(CC=C)C(=S)NC(=O)/C=C/c1ccccc1	-8
NS(=O)(=O)c1ccc(CCNc2cc(=O)n(Cc3ccc(F)cc3)c(=O)[nH]2)cc1	-6
CCC(C)(C(=O)NC1CCCC1)N(Cc1cccs1)C(=O)c1ccccn1 (configuration not stated)	-11
CC(C)(O)CNC(=O)C(Cc1ccccc1)N1C(=O)c2ccccc2C1=O (configuration not stated)	-17
CC1(C)CC(=O)C(C(=S)Nc2ccccc2)=C(NC2CC(C)(C)NC(C)(C)C2)C1	-25
O=C(N/N=C/c1cn(CCOc2ccccc2)c2ccccc12)c1ccncc1	-29
CC(=C/c1ccccc1)/C=N/Nc1nc(N2CCOCC2)nc(N2CCOCC2)n1	-15
CN(c1ccccc1)c1nccc(=O)[nH]1	-24
O=C1CC2(CCN(C(=O)c3ccc(Br)cc3)CC2)Oc2ccccc21	-20
COc1ccc(CC(=O)Oc2ccc(C#N)cc2)cc1	-9
COc1ccc(NC(=O)CCC(=O)Nc2nnc(CC(C)C)s2)cc1Cl	-20
Cc1cccc(OCc2ccc(C(=O)Nc3ccc(F)cc3)cc2)c1	-8
O=C(/C=C/c1ccc(Cl)cc1Cl)Nc1ccc(CN2CCOCC2)cc1	-19

Random excerpt: 7 compounds from above
SMILES	OX1R antagonist
O=C(CSc1nc(=O)n2ccccc2n1)Nc1ccc2c(c1)OCCO2	-22
C=CCOc1ccc2c(c1)c(=O)cc(C(=O)O)n2CC	-3
Cc1ccc(S(=O)(=O)N[C@@H](Cc2ccccc2)C(=O)N2CCC(C(=O)N[C@H](C(=O)O)C(C)O)CC2)cc1 (some centres not stated)	-17
CN(C)S(=O)(=O)c1ccc(NC(=O)CN2CCC(Cc3ccccc3)CC2)cc1	-20
Cc1cccc(OCc2ccc(C(=O)Nc3ccc(F)cc3)cc2)c1	-8
CCOC(=O)c1c(C)c(C#N)c2c3ccccc3ccn12	-9
Clc1ccc(-c2nnsc2SCc2ccccc2)cc1	-24

Additional compounds follow.
SMILES	OX1R antagonist
Cc1c(C=O)c2ccccn2c1C(=O)c1ccncc1	-9
CN1CCN(CCCNCc2cn(CCC#N)c3ccccc23)CC1	-12
COC(=O)CCn1[nH]c(=O)c2ccccc2c1=O	3
CCN(CC)CCCNC(=O)Cc1c(C(=O)O)n(C)c2ccccc12	-8

Gathered by group: the compounds so far with a furan ring, fused or not.
SMILES	OX1R antagonist
CC(c1nnc(SCC(=O)NC(=O)NCc2ccco2)n1-c1ccc(Cl)cc1)N(C)C (configuration not stated)	-12
CCCc1oc(C(=O)O)cc1CN1CCOCC1	-8
O=C(Nc1ccccc1C(=O)NCc1ccco1)NC1CCCCC1	-39
c1ccc(-c2nc(NCC3CCCO3)c3oc4ccccc4c3n2)cc1 (configuration not stated)	-34
Cc1ccc(CN(C)C(=O)c2ccccc2Oc2ccccc2)o1	-25
Cc1cc(-c2csc(N)n2)c(C)n1Cc1ccco1	-12
Cc1n[nH]c(=O)nc1N/N=C/c1ccco1	-9
Cc1cc(Cl)c2oc(C(=O)N(C)CCCN3CCOCC3)c(C)c2c1	-31
